# Compound activity (PubChem)
# H5N1 CPE = MDCK cell protection from H5N1 avian flu | 96,000 tested, 0.07% active | inhibition, % at 50 µM | AID 740, 2007 | cytopathic effect, luminescence, 72 h; hits give high values; no value below 0 was filed and about half of the inactive calls have no number; reference of the scale not given here; in the data active = inhibition above about 25%
# An asterisk follows results filed as active; i = inactive. Some of the compounds tested; count on the stated rates, not on these rows.
SMILES,H5N1 CPE
CCCCSCc1[nH]c(=O)[nH]c1C(=O)CCCCC(=O)OCC,0.5
Cc1cc(-c2nnc3sc(-c4ccc(Cl)cc4Cl)nn23)n[nH]1,0.9
O=C(NC1CCCCC1)C(Cc1ccccc1)NS(=O)(=O)c1cccs1 (stereo not drawn),i
CCOC(=O)C1CCN(C(=O)NC23CC4CC(CC(C4)C2)C3)CC1,0.7
CCOC(=O)CSc1nnc(SCCN2C(=O)c3ccccc3C2=O)s1,0.4
O=C(O)c1ccccc1NCN1C(=O)C2CC=C(Cl)CC2C1=O (stereo not drawn),i
Cc1ccc(Nc2nc(-c3ccc(S(=O)(=O)N4CCCC4)cc3)cs2)cc1C,i
C/C(Cl)=C\Cn1c(Nc2ccccc2)nc2c1c(=O)n(C)c(=O)n2C,7.0
CC1(C)Cc2cccc(OCC(=O)Nc3ccccc3N3CCOCC3)c2O1,0.2
Cc1ccc(N2C(=O)c3n[nH]c(C)c3C2c2cccnc2)cc1 (stereo not drawn),i
Cc1ccc(N2CC(C(=O)Nc3nnc(C)s3)CC2=O)cc1 (stereo not drawn),0.1
Cn1c(=O)c(C(=O)Nc2ncccn2)c(O)c2ccccc21,i
COCCN(Cc1cc2cccc(C)c2n2nnnc12)C(=O)C(F)(F)F,0.6
CC(C)(C)NC(=O)/C(=C/c1ccco1)c1ccccc1,2.7
CC(C)CCNC(=O)C1CCCCN1S(=O)(=O)c1ccc(F)cc1 (stereo not drawn),0.9
Cc1ccc(O)c(Sc2cc(C)ccc2O)c1,0.7
CCOC(=O)c1cc(S(=O)(=O)NC2CCN(C(=O)OCC)CC2)cn1C,0.1
CCN(CCN(C)C)C(=O)Cn1ncc2c1-c1cc(C)ccc1OC2,1.1
COc1cc(-c2nc3cnccn3c2Nc2ccc3c(c2)OCCO3)ccc1O,0.9
O=C(CN1C(=O)c2ccccc2C1=O)Nc1sc2c(c1C(=O)NCC1CCCO1)CCC2 (stereo not drawn),0.6
COc1ccccc1N1CCN(C(=O)CCCC2=NS(=O)(=O)c3ccccc3N2)CC1,1.2
OCCN(CC(O)Cn1ccc2ccccc21)CC(O)Cn1ccc2ccccc21 (stereo not drawn),i
N#Cc1c(C(F)(F)F)cc(-c2ccco2)nc1SCc1ccncc1,0.5
Cc1ccc(/C(O)=C2\C(=O)C(=O)N(CC(C)O)C2c2cccc(F)c2)cc1 (stereo not drawn),0.3
COc1ccc(-c2nc(CS(=O)CC(=O)NCCCN3CCCC3)c(C)o2)cc1OC (stereo not drawn),i
O=C(Cn1nc(C(F)(F)F)c2c1CCC2)N1CCN(c2ccccc2)CC1,1.2
CC1(C)CC(=O)C2=C(C1)c1c(ccc3ccccc13)NC2c1ccc(Br)o1 (stereo not drawn),2.4
COCCNC(=O)COC(=O)c1[nH]c(C)c(C(C)=O)c1C,i
Clc1ccc(Nc2nc(-c3cccs3)cs2)nc1,i
CCn1cc(C(=O)NCCCOC)c(=O)c2cc(S(=O)(=O)N(C)C3CCCCC3)ccc21,1.2
Cc1nc(SC(C)C)[nH]c(=O)c1Cc1ccccc1,i
CCCSCCCNC(=O)Cn1cc2c(n1)CCC(C)C2 (stereo not drawn),i
COc1ccc(OC)c(NC(=O)c2ccc(NS(=O)(=O)c3c(C)noc3C)cc2)c1,i
O=C(c1ccncc1)N1CCN(C(=O)c2cccs2)CC1,i
Cc1ccc(/C(N)=N/OC(=O)C23CC4CC(CC(C4)C2)C3)cc1,i
COC(=O)c1ccc(C2C(C(C)=O)=C(C)Nc3ncnn32)cc1 (stereo not drawn),0.5
CCCn1c(=N)n(CC(=O)c2ccco2)c2ccccc21,0.0
COc1cc(-c2c(C#N)c(N)nc(SCc3ccncc3)c2C#N)cc(OC)c1OC,i
Cc1noc(C(=O)Nc2sc3c(c2C#N)CCC3)c1Cl,0.6
COc1ccc(-n2c(NC(=O)c3ccc(Br)o3)c(C#N)c3nc4ccccc4nc32)cc1,0.4
CC1CC(=O)c2cnc(N)nc2C1 (stereo not drawn),i
O=C(Nc1ccc(Oc2ccc(Cl)cc2)cc1)c1ncn[nH]1,i
CC1CCCCN1CCNC(=O)CN1C(=O)COc2ccccc21 (stereo not drawn),0.3
Cc1ccc(C(=O)O/N=C(\N)c2ccc(Br)cc2)cc1,i
OCCNCCOc1ccccc1-c1ccccc1,i
Nc1ccc2c(c1)N1CCN=C1S2,i
Cc1nc2n(n1)CC(O)CS2 (stereo not drawn),i
O=C(COc1ccc(Br)cc1CO)Nc1ccccc1,1.0
Cc1ccccc1OCc1nc(-c2ccc(Br)o2)no1,i
O=C(Cn1c(=O)oc2cc(S(=O)(=O)N3CCCC3)ccc21)N1CCN(c2ccccn2)CC1,0.5
COc1ccc(S(=O)(=O)Nc2ccc(C)cc2)cc1N(C)S(=O)(=O)c1ccc(Cl)cc1,i
Cc1ccc(S(=O)(=O)N2CCN(C(=O)c3nn(C(C)C)c(=O)c4ccccc34)CC2)cc1C,1.8
O=C(C1CCCO1)N1CCN(c2ncccn2)CC1 (stereo not drawn),i
COCCn1c(SCC(=O)Nc2ccc(S(=O)(=O)N3CCOCC3)cc2)nc2ccccc21,i
Cc1ccc(-n2nnnc2SCC(=O)NC(=O)Nc2ccc3c(c2)OCCO3)cc1,i
CCOC(=O)c1c(/N=C/N(C)C)sc(C(=O)OC)c1C,0.7
O=C(OC1CCN(c2ncc(C(F)(F)F)cc2Cl)CC1)c1ccccc1,i
Cc1c(C(=O)/C=C/c2cccs2)oc2ccc(F)cc12,i
CCc1cc2c(cc3c(=O)n(CC(=O)NCCCN(CC)CC)nc(CC)n32)s1,i
Cc1ccc(-c2noc(CSc3nnc(Cc4ccccc4)n3-c3ccc(Cl)cc3)n2)cc1,1.0

# A second format for part of the listing above:
compound	H5N1 CPE
COc1ccc(-n2c(NC(=O)c3ccc(Br)o3)c(C#N)c3nc4ccccc4nc32)cc1	0.4
CC1CC(=O)c2cnc(N)nc2C1 (stereo not drawn)	i
O=C(Nc1ccc(Oc2ccc(Cl)cc2)cc1)c1ncn[nH]1	i
CC1CCCCN1CCNC(=O)CN1C(=O)COc2ccccc21 (stereo not drawn)	0.3
Cc1ccc(C(=O)O/N=C(\N)c2ccc(Br)cc2)cc1	i
OCCNCCOc1ccccc1-c1ccccc1	i
Nc1ccc2c(c1)N1CCN=C1S2	i
Cc1nc2n(n1)CC(O)CS2 (stereo not drawn)	i
O=C(COc1ccc(Br)cc1CO)Nc1ccccc1	1.0
Cc1ccccc1OCc1nc(-c2ccc(Br)o2)no1	i
O=C(Cn1c(=O)oc2cc(S(=O)(=O)N3CCCC3)ccc21)N1CCN(c2ccccn2)CC1	0.5
COc1ccc(S(=O)(=O)Nc2ccc(C)cc2)cc1N(C)S(=O)(=O)c1ccc(Cl)cc1	i
Cc1ccc(S(=O)(=O)N2CCN(C(=O)c3nn(C(C)C)c(=O)c4ccccc34)CC2)cc1C	1.8
O=C(C1CCCO1)N1CCN(c2ncccn2)CC1 (stereo not drawn)	i
COCCn1c(SCC(=O)Nc2ccc(S(=O)(=O)N3CCOCC3)cc2)nc2ccccc21	i
Cc1ccc(-n2nnnc2SCC(=O)NC(=O)Nc2ccc3c(c2)OCCO3)cc1	i
CCOC(=O)c1c(/N=C/N(C)C)sc(C(=O)OC)c1C	0.7
O=C(OC1CCN(c2ncc(C(F)(F)F)cc2Cl)CC1)c1ccccc1	i
Cc1c(C(=O)/C=C/c2cccs2)oc2ccc(F)cc12	i
CCc1cc2c(cc3c(=O)n(CC(=O)NCCCN(CC)CC)nc(CC)n32)s1	i

# The listing continues.
SMILES,H5N1 CPE
O=c1c2cnn(-c3ccccc3)c2ncn1Cc1cccc(Cl)c1,0.1
COCc1cc(=O)n2[nH]c(SC)nc2n1,0.6
C=C(C)CSc1nncn1/N=C/c1ccc(OC)cc1,0.8
CS/C(=C\[N+](=O)[O-])Nc1ccccc1,3.1
Cc1cc(C)nc(SCC(=O)Nc2ccc(N3CCOCC3)cc2)n1,i
CCCC(=O)NCCc1nc2ccccc2n1C,0.4
CCc1ccc(-c2cc(C(F)(F)F)n3nc(C(=O)Nc4c(C)nn(Cc5ccccc5C)c4C)cc3n2)s1,1.5
Cc1nc2ccc(S(=O)(=O)NC(C(=O)N3CCCCCC3)C(C)C)cc2s1 (stereo not drawn),1.1
CCCC(=O)NC(=S)Nc1ccccc1C(=O)OC,0.3
CCOC(=O)c1ccc(NC(=O)CC2C(=O)N(c3cccc(OC)c3)C(=O)N2CCOC)cc1 (stereo not drawn),i
COc1cc2ncnc(NCc3ccc(C)cc3)c2cc1OC,0.1
O=C1CN(C(=O)CN2CCCCC2)C(c2ccccc2)c2cc(Br)ccc2N1 (stereo not drawn),i
Fc1ccc(CNc2ccc(CNc3ncn[nH]3)cc2)cc1,0.1
CCNc1oc(-c2ccc(OC)cc2)nc1S(=O)(=O)c1ccc(Br)cc1,i
CCOC(=O)c1ccccc1NC(=O)N1CCn2c(C)ccc2C1CC (stereo not drawn),0.1
COc1ccc(OC)c(NC(=O)C2CCCN(S(=O)(=O)c3cccc4cccnc34)C2)c1 (stereo not drawn),0.1
COc1ccccc1CC(=O)Nc1cc2oc3ccccc3c2cc1OC,0.1
COC(=O)c1cn(NC(=O)CC2CCCCC2)c(=O)c2ccccc12,0.2
N#C/C(=C\c1cn(-c2ccccc2)nc1-c1cccnc1)c1nnc2n1CCCCC2,1.2
Cc1cc(C)n2nc(NCc3cccc(Br)c3)nc2n1,i
CC1CCN(c2ncnc3c2cnn3-c2ccccc2)CC1,0.2
COc1cc(C)c(Cl)cc1S(=O)(=O)NCc1ccncc1,i
CCOCCCn1c(=S)[nH]c2cc(C(=O)NCCN(CC)CC)ccc2c1=O,0.6
CSc1nc(C)c(Oc2ccccc2)c(=O)n1C,0.8
CC(C)Cc1cc(C(=O)Nc2cc(Cl)ccc2Cl)no1,i
Cc1n[nH]c(=S)n1/N=C/c1ccc(-c2ccccc2[N+](=O)[O-])o1,i
O=c1c2cc(Cl)ccc2oc2nc3n(c(=O)c12)CCCS3,6.1
CCCc1nc(N2CCOCC2)c(C#N)c2c1CCCC2,1.2
COc1cccc(Nc2nnc(SCc3cc([N+](=O)[O-])cc4c3OCOC4)s2)c1,0.7
Cc1oc(-c2ccccc2Cl)nc1CSCC(=O)NC1CCCC1,i
Cc1ccn(CCSCC(=O)O)n1,0.5
Cc1cc(N2CCCN(C)CC2)nc2cc(Cl)ccc12,i
CCOc1cnn(-c2cc(Oc3ccc(C)cc3)ncn2)c(=O)c1Cl,0.3
CCOC(=O)C1CCN(C(=O)COc2cc(C)c(Br)c(C)c2)CC1,0.1
Cc1ccc2cc(CN(Cc3ccc4c(c3)OCO4)Cc3nnnn3Cc3ccco3)c(=O)[nH]c2c1C,i
CN(Cc1cccs1)C(=O)CSc1nnnn1C,i
O=C(NCC(=O)N(Cc1ccc(F)cc1)C(C(=O)NC1CCCC1)c1ccco1)c1ccco1 (stereo not drawn),i
Cc1cccc(C)c1NC(=O)CSc1nnc(-c2ccoc2C)n1CCc1ccccc1,i
COc1ccc(-c2cn3cccnc3n2)cc1NC(=O)C1CCCC1,0.4
CCOC(=O)C1=C(C)NC2=C(C(=O)c3ccccc32)C1c1cccnc1 (stereo not drawn),1.4
COc1ccccc1OCC(=O)Nc1oc(-c2ccccc2)c(-c2ccccc2)c1C#N,0.5
CCCC(CCC)C(=O)NNc1cc(=O)c2c(=O)n(C)c(=O)n(C)c2[nH]1,1.9
CCCCCC(=O)NNC(=O)c1ccc(-c2ccccc2)cc1,i
O=C(O)CCc1ccc(-c2cccs2)n1NC(=O)c1ccc(Cl)cc1Cl,i
CC(CNc1ccc([N+](=O)[O-])cc1)NC(=O)c1ccccc1Br (stereo not drawn),0.2
CC1=CC(C)(C)N2C(=O)C3(C(C#N)=C(N)Oc4cc(O)ccc43)c3cccc1c32 (stereo not drawn),i
Cc1cccc(C(=O)NC(=S)Nc2ccc(S(=O)(=O)N3CCCCC3)cc2)c1,2.6
O=C(Nc1cccc(C(=O)N2CCCC2)c1)c1ccccc1,2.2
CCOc1cc(-c2nc(-c3ccccc3OC)no2)cc(OCC)c1OCC,i
CCN(CC)CCNC(=O)c1nn(-c2ccc(C)cc2)c(=O)c2c1c1ccccc1n2C,i
Cc1ccc(N(CC(=O)NCCSCc2ccco2)S(C)(=O)=O)cc1,0.1
COC(=O)CSc1cc(C(=O)c2nccn2C)c2ccccc2n1,i
COCCn1c(SCC#N)nnc1-c1ccccc1,i
CCN(CC)Cc1c(O)c(Cl)cc2c3c(c(=O)oc12)CCCC3,0.7
O=C(O)c1ccc(NS(=O)(=O)c2ccc(Cl)c(Cl)c2)cc1O,0.2
CCOC(=O)c1sc(NC(=O)CSc2nncs2)c(C(=O)OCC)c1C,1.2
c1ccc(C2Nc3ccccc3-c3nc4ccccc4n32)cc1 (stereo not drawn),i
Cc1nn(-c2ccccc2)c2c1P(=O)(O)/C(=C1\N(C)c3ccccc3C1(C)C)C=N2,i
COC(=O)C1CCCN1S(=O)(=O)c1ccc2ccccc2c1 (stereo not drawn),i
COc1ccc(-c2c(NC(=O)C(C)C)n(C)c3ccccc3c2=O)cc1,0.5
# More structures follow.
SMILES,H5N1 CPE
COc1ccc(C(CC(=O)N2CCC3(CC2)OCCO3)NS(=O)(=O)c2ccc(F)cc2)cc1 (stereo not drawn),1.9
COC(=O)COc1ccc(S(=O)(=O)NCc2ccco2)cc1Cl,0.1
CCOC(=O)c1nc2ccccc2c(=O)n1-c1cccc(C)c1,0.7
Cc1nn(-c2ccccn2)c2c1C(c1ccsc1)C1=C(CCCC1=O)N2 (stereo not drawn),4.0
CCOC(=O)c1[nH]c(C)c(C(=O)OCCN2C(=O)c3ccccc3C2=O)c1C,i
COC(=O)c1sc2ncccc2c1OCc1cccc(Cl)c1,i
CN/C=C1\C(=O)C(C)(C)Oc2ccc3ccc(=O)oc3c21,0.4
N#Cc1ccc(-c2nnnn2-c2ccc3c(c2)OCO3)cc1,0.9
CC(=O)C1=C(O)C(=O)N(Cc2ccco2)C1c1ccccc1 (stereo not drawn),i
Cc1nnc(SCC(=O)NCCOc2ccc(Cl)cc2)n1-c1ccccc1,0.3
CCCOc1ccc(C(=O)NNC(=S)NC(=O)c2cc(-c3ccccc3)nc3ccccc23)cc1,1.4
CCOc1ccc(-c2nc(N)ncc2Oc2cccc(OC)c2)c(O)c1,0.4
Cc1onc(-c2ccccc2)c1C(=O)Nc1ccc2c(c1)OCO2,i
